PABP polyA inh – PABP-poly(A) binding inhibition; P11940; PABP-poly(A) RNA binding, fluorescence polarization; inhibition, % at 35 µM; 290,000 compounds, 1% hits;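 active means 50% or more with normal probe brightness, or confirmed in later tests; inconclusive means above 50% with abnormal brightness, or retests that disagree; inactive means below 50% or failed in later tests; about a fifth of its hits are not listed in these tables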;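 further: calls also rest on retests at 20 µM and on dose response follow-up; controls were probe without protein and protein plus probe with vehicle; some compounds called inactive have numbers as strong as hits; many hits fall short of the cut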
MT1-MMP act inh – MT1-MMP (human) activation inhibition; P50281; HT1080 RFP-PRO-GFP cells, GFP/RFP ratio fluorescence, overnight; percent of plate control window, DMSO zero; GFP/RFP ratio change, % at 20 µM; 360,000 compounds, 0.061% hits; AID 651647;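 active means GFP/RFP ratio change of at least 30% with cell ATP level not reduced by more than half and red fluorescence within 50% of control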; further: strong numbers were not always called active
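Material – HT1080 RFP-PRO-GFP cells · Control set – DMSO wells and RFP-L50D-GFP cells · Incubation – overnight cell settling, then overnight compound exposure, 37 °C, 5% CO2 · Compound dosing – single-point 20 µM compound, 1% DMSO · Read-out – GFP/RFP fluorescence ratio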
Rce1 inhib – inhibitors of yeast Ras-converting enzyme. Q03530. yeast membranes, quenched prenylated peptide cleavage fluorescence. calls only. 290,000 compounds, 0.27% hits;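 active means fall in fluorescence gain of 50% or more versus controls, with final raw signal at or below 3038400; inconclusive means same 50% fall but final raw signal above 3038400; inactive means fall in fluorescence gain under 50%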;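 further: plate controls were neutral control wells for no effect and wells lacking membranes for full effect; tested at 10 µM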
Target sequence (Q03530 whole entry, looked up): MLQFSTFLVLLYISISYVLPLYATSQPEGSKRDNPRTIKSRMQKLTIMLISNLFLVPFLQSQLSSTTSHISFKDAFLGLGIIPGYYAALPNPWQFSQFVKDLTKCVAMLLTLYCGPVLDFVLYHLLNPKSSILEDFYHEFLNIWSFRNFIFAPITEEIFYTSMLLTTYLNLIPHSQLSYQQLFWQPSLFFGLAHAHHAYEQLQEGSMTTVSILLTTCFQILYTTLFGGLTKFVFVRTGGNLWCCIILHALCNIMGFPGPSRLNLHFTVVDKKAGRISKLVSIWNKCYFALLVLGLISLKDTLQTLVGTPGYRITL
eIF4H FP inh – inhibitors of RNA binding by human eIF4H. eIF4H fluorescence polarization binding assay. inhibition, % at 35 µM. 290,000 compounds, 0.94% hits. AID 2012;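 active means 50% or more with normal probe brightness, or confirmed in later tests; inconclusive means above 50% with abnormal brightness, or retests that disagree; inactive means below 50% or failed in later tests; about a fifth of its hits are not listed in these tables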;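 further: calls also rest on retests at 20 µM and on dose response follow-up; 0% = protein and probe with vehicle and 100% = probe without protein; strong numbers were not always called active; many hits fall short of the cut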
CSC inhib – cancer stem cell inhibition; inhibition, % at 7.5 µM; 300,000 compounds, 1.1% hits; cancer stem cell-like cells viability, luminescence; AID 2717;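 active means mean at 75% or more and at least half the replicates too; inconclusive means mean and replicates disagree; tested in HMLE shEcad cells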;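 further: 0% = median of negative and 100% = median of positive control wells; the first replicate is given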
UUG fidelity – yeast start codon fidelity modulation. S. cerevisiae UUG-firefly luciferase reporter, luminescence/redox ratio. activity score, % at 18.7 µM. 350,000 compounds, 0.13% hits;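 active means replicate mean at a twofold rise or more, about +100% in these data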;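 further: firefly luciferase made from a UUG start codon reports start codon fidelity; reporter light over untreated wells divided by growth signal over untreated wells; some hits fall short of that in this replicate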
Env fusion inh – HIV envelope-mediated fusion inhibition; HeLa-JRFL Env/CEM21 cell fusion, luciferase; inhibition, % at 12.3 µM; 360,000 compounds, 1.1% hits; AID 651610;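 active means mean replicate inhibition score of at least 50 and every replicate individually at or above 50; inconclusive means only one of the two criteria met; inactive means mean below 50 and not all replicates reaching 50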;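 further: 0% = plate neutral controls and 100% = maraviroc near 300 nM; one replicate is shown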
eIF4H FP inh retest – also measured in eIF4H FP inh; calls as there; inhibition, %; compound at 20 µM; confirmation average;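 mean of two retest wells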
PABP polyA inh retest – also measured in PABP polyA inh; calls as there; inhibition, %; compound at 20 µM; confirmation repeats;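 mean of two retest wells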
MT1-MMP act inh RFP – further read-out of MT1-MMP act inh, marked with its call; RFP signal change, %; measured here: RFP expression control read;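 0 = vehicle wells; hits needed this value within 50% of zero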
An asterisk follows results filed as active; i = inactive; ? = inconclusive; . = not tested or not shown; + = active, no number.

SMILES | PABP polyA inh | MT1-MMP act inh | MT1-MMP act inh RFP | Rce1 inhib | eIF4H FP inh | CSC inhib | UUG fidelity | Env fusion inh | others
c1ccc2c(c1)ccn2CCCN1CCCCC1 | . | 1 | 4 | . | . | . | -9 | 29
Cc1cc(NC(=O)CSCCO)no1 | 0 | -2 | 5 | i | -2 | -2 | . | -92
Cc1cccc(N2CCN(C(=O)COc3cccc4c3OC(C)(C)C4)CC2)c1C | -5 | -1 | -2 | i | 4 | -4 | . | 7
CCOC(=O)c1ccc(-c2ccc(CO)o2)cc1 | -3 | -3 | -8 | ? | -2 | 1 | . | -53
CCn1cc(C(=O)N2CCc3ccccc32)c(=O)c2cc(S(=O)(=O)N3CCOCC3)ccc21 | 4 | -1 | 14 | i | -3 | 1 | -5 | -10
O=c1c2ccccc2ncn1-c1ccc2c(c1)OCCO2 | 6 | 6 | 2 | i | 8 | -21 | . | -75
CCOC(=O)C1=C(COC(=O)COc2ccc(C#N)cc2)NC(=O)NC1C (stereo unspecified) | -10 | -6 | -2 | i | 0 | -5 | 2 | -162
O=C(c1ccc(Sc2ccc(F)cc2)c([N+](=O)[O-])c1)N1CCOCC1 | 4 | 1 | 1 | i | 2 | 58 | 8 | -1
CN(C)/C=C/C(=O)c1cccc(C(F)(F)F)c1 | 3 | -2 | -1 | i | 4 | 0 | . | -3
Cc1ccc(C(=O)/C=C/c2cn(CC(O)CN3CCOCC3)c3ccccc23)cc1 (stereo unspecified) | -1 | -9 | -7 | . | 10 | 22 | . | .
Cc1c(C(=O)NC(C(C)C)C(C)C)cccc1[N+](=O)[O-] | -4 | -1 | -1 | i | -6 | -6 | . | 0
COCCNC(=O)CN(C)S(=O)(=O)c1ccc2c(c1)OCCO2 | 30 | 2 | 6 | . | 11 | -6 | -5 | -84
CC(C)Cc1cc(C(=O)NCc2ccco2)no1 | 10 | 1 | 1 | i | 20 | -1 | -7 | .
COC(=O)c1cc(NC(=O)Cc2ccccc2[N+](=O)[O-])ccc1Cl | 0 | 3 | 2 | i | -6 | . | -2 | -26
CCN(CC)P(=O)(Nc1ccc([N+](=O)[O-])cc1)c1c(C)nn(CCC#N)c1NC(=O)c1ccc(Cl)cc1 (stereo unspecified) | 0 | -3 | -4 | i | 2 | 6 | -22 | 4
O=C(CSc1ncn[nH]1)N1CCN(S(=O)(=O)c2ccccc2)CC1 | -4 | 0 | 8 | i | 0 | -11 | . | .
CC(C)[C@H](NC(=O)c1ccccc1)C(=O)OCC(=O)Nc1ccc(Cl)cc1C(F)(F)F | 0 | 1 | -1 | i | -5 | 0 | -1 | -11
O=C(NCCCN1CCCC1=O)C1CCN(S(=O)(=O)c2cc(C(F)(F)F)ccc2Cl)CC1 | . | 3 | 3 | . | . | -8 | -14 | 3
O=C(NCc1ccccc1)c1ccc2c(c1)C(=O)N(Cc1ccncc1)C2=O | 3 | 4 | 2 | i | -6 | 0 | -24 | .
Cn1c(N)c(C(=O)COC(=O)c2cc(S(=O)(=O)N3CCOCC3)ccc2F)c(=O)n(C)c1=O | . | 9 | 9 | . | . | 28 | 8 | .
O/N=C1/CCCCC1c1ccccn1 (stereo unspecified) | 2 | -5 | -2 | i | 3 | 3 | -26 | .
COc1cc(C(=O)NC2CCCC2)c(Br)c(OC)c1OC | -7 | 1 | 3 | i | 0 | -41 | . | 7
Cc1cc(Cl)ccc1NC(=S)NCCN1CCOCC1 | 2 | 2 | 5 | i | -19 | 1 | . | -9
O=C(CCCn1c(=S)[nH]c2ccc(Br)cc2c1=O)NCc1ccccn1 | -3 | -1 | -3 | i | 1 | -9 | -21 | 10
CCn1cc(CN2CCN(Cc3ccccc3)C(CCO)C2)c2ccccc21 (stereo unspecified) | -2 | 0 | 2 | i | -9 | -6 | -18 | -9
O=C(OCc1cc2ccccc2[nH]c1=O)c1ccco1 | -4 | 1 | 2 | i | -1 | -3 | -11 | .
Cc1ccc2nc(-c3ccccn3)cc(C(=O)NC(C)C(C)(C)C)c2c1 (stereo unspecified) | -2 | -4 | -4 | i | 4 | 17 | . | -11
CSc1nc(N)nc(SC2C=CCCC2)c1C#N (stereo unspecified) | -3 | 1 | -3 | i | -5 | -7 | 7 | .
O=[N+]([O-])c1cc(/C=N/N2CCN(Cc3ccccc3)CC2)ccc1Cl | -6 | 3 | 2 | i | 4 | 8 | . | .
COc1ccc(Cc2n[nH]c(=S)n2NC(=O)Nc2ccc(C)cc2)cc1 | 5 | -5 | -11 | i | 2 | 1 | -13 | -21

Entries shown so far that have bromine (2):
SMILES | PABP polyA inh | MT1-MMP act inh | MT1-MMP act inh RFP | Rce1 inhib | eIF4H FP inh | CSC inhib | UUG fidelity | Env fusion inh | others
COc1cc(C(=O)NC2CCCC2)c(Br)c(OC)c1OC | -7 | 1 | 3 | i | 0 | -41 | . | 7
O=C(CCCn1c(=S)[nH]c2ccc(Br)cc2c1=O)NCc1ccccn1 | -3 | -1 | -3 | i | 1 | -9 | -21 | 10

(list continues)
SMILES | PABP polyA inh | MT1-MMP act inh | MT1-MMP act inh RFP | Rce1 inhib | eIF4H FP inh | CSC inhib | UUG fidelity | Env fusion inh | others
COc1ccc(C2CC(c3cccs3)=Nc3ccccc3S2)cc1OC (stereo unspecified) | -8 | -2 | -2 | i | -1 | 21 | -21 | .
CC(=O)Nc1ccc(S(=O)(=O)Nc2nccc(C3Cc4ccccc4C(=O)O3)n2)cc1 (stereo unspecified) | -4 | 0 | -1 | i | -2 | -13 | -5 | .
O=C(N/N=C/c1c(F)cccc1Cl)C(=O)N1CCCCCC1 | 0 | 3 | 5 | . | -8 | -6 | -8 | 8
Cc1ccccc1-c1ccc(C=Nc2c(C)n(C)n(-c3ccccc3)c2=O)o1 | 4 | -4 | -2 | i | 0 | -6 | 5 | -56
Cc1csc(C(C#N)C(=O)c2ccncc2)n1 (stereo unspecified) | 7 | 9 | 6 | i | -1 | 1 | . | .
CCCNC(=O)C1(C)CCCN(C(=O)c2ccc3c(c2)CCO3)C1 (stereo unspecified) | . | 3 | 6 | . | . | . | -3 | -5
COC(=O)c1ccc(-n2ccnc2)cc1 | 0 | 1 | 4 | i | 11 | -9 | . | 6
CN1CCC(N(C)C(=O)c2ccc(Cl)c(S(=O)(=O)Nc3ccc(Cl)cc3)c2)CC1 | . | -6 | -1 | . | . | . | -42 | -9
Clc1ccc(Cn2nnc(-c3ccc(CN4CCOCC4)cc3)n2)cc1 | 2 | 3 | 0 | i | -14 | . | -22 | -78
Cc1ccc(C2NC(=O)c3c(sc4c3CCN(C)C4)N2)o1 (stereo unspecified) | 124 | -24 | 1 | i | 122 | -9 | -15 | . | eIF4H FP inh retest=32;PABP polyA inh retest=21
CCOC(=O)c1sc2nc(CSc3ccccc3)nc(N3CCC(C(N)=O)CC3)c2c1C | 5 | -3 | -14 | i | 33 | 39 | . | 12
CC1(C)CSC(C)(C)C(=O)N1 | . | 8 | 5 | . | . | . | 11 | -6
COc1ccc(N/C(N)=N/c2nc(CSc3ccc(C)cc3)cc(=O)[nH]2)cc1 | 3 | 1 | -1 | i | -9 | 14 | -16 | .
COc1ccc(/C=C/C(=O)O)cc1S(=O)(=O)NCc1ccccc1 | 0 | -1 | 0 | i | 10 | 1 | -8 | -4
CCCN(CC(=O)Nc1ccccc1C)C(=O)c1ccc(S(=O)(=O)N2CCCCCC2)cc1 | -14 | 2 | -2 | i | -11 | . | -10 | .
CCOC(=O)c1c(C)oc2c1C(=O)c1ccccc1C2=O | 12 | -6 | -11 | i | -1 | 85* | -23 | -14
CCOc1ccc(C(=O)COC(=O)c2cccc(-n3cnnn3)c2)cc1 | -1 | -1 | 0 | i | 0 | -3 | -18 | -13
O=C(c1cnc2n(c1=O)CCS2)N1CCN(C(c2ccccc2)c2ccc(Cl)cc2)CC1 (stereo unspecified) | -11 | -17 | -8 | + | -1 | -9 | -20 | .
COC(=O)c1ccc(NC(=O)CN2CCCC2)cc1 | 1 | 4 | 7 | i | -5 | -3 | -12 | -101
CCn1c(Cc2ccccc2)nnc1SCC(=O)NC1CC1 | -4 | 3 | 3 | i | 2 | -5 | . | -40
COC(=O)CCC(=O)NC(=S)Nc1ccccc1F | ? | 5 | 0 | i | 8 | -4 | -8 | 1
Cc1cc(C)c2nc(-c3ccccn3)cc(C(=O)NCc3cc(C)n(C)n3)c2c1 | 8 | 4 | -2 | i | -2 | -12 | -5 | -6
COc1cc(OC)c(OC)cc1CN1CCN(c2ccc(F)cc2)CC1 | 4 | 1 | 0 | i | 12 | 11 | 5 | -1
O=S(=O)([N-]c1nc2ccccc2nc1-n1cc[n+](Cc2ccccc2)c1)c1ccc(Br)cc1 | -2 | -2 | -3 | i | -4 | -1 | -4 | -67
CSCCC(NC(=O)c1ccco1)C(=O)NCc1ccc(F)cc1 (stereo unspecified) | -13 | -3 | 3 | i | -9 | -11 | -14 | -40
CC(C)NC(=O)C(=O)NNC(=O)C12CC3CC(CC(C3)C1)C2 | -19 | 2 | 5 | i | 2 | 19 | -7 | .
O=C(CSc1ncnc2c1cnn2-c1ccccc1)Nc1ccccc1 | 5 | 0 | -21 | i | -17 | 17 | -7 | .
Cc1ccc2cc(/C=N/NC(=O)c3ccccc3[N+](=O)[O-])c(Cl)nc2c1 | 14 | 0 | -9 | i | -2 | . | -19 | 14
CCOC(=O)C1(CC2CC2)CCN(Cc2ccc(C(=O)OC)cc2)CC1 | 10 | 2 | -1 | i | 2 | 14 | -4 | 1
O=C(NCc1ccco1)c1cc(S(=O)(=O)NC2CC2)ccc1Br | . | 1 | -2 | . | . | -13 | . | -7
COc1ccc(CC(=O)N2CCN(c3ccccc3)CC2)cc1OC | 5 | 5 | -3 | i | -6 | -7 | -21 | 11
COc1cccc(OCCOCC(O)CN2CCN(Cc3ccc(Cl)cc3)CC2)c1 (stereo unspecified) | -2 | -7 | -5 | i | -6 | -2 | -1 | 0
CC1(C)Cc2c(cnn2-c2ccccc2)C(NC(=O)c2ccoc2)C1 (stereo unspecified) | -4 | 0 | 1 | i | 1 | 13 | -30 | 15
Cc1cc(=O)oc(C)c1C(=O)Nc1ccccc1F | 5 | 1 | 0 | i | -4 | 1 | -6 | -13
COc1ccc(NC(=O)CN2CCN(C3c4ccccc4-c4ccccc43)CC2)cc1 | 2 | -1 | -1 | i | 1 | 2 | -11 | 6
O=c1[nH]c2ccccc2n2cnnc12 | -4 | -1 | -1 | . | 6 | 5 | . | -1
O=C(CNC(=O)c1ccco1)Nc1cc(Cl)ccc1N1CCOCC1 | -4 | 1 | 3 | i | 6 | -10 | -1 | -14
O=C(CSc1ncnc2sc3c(c12)CCCCC3)NCc1ccco1 | 7 | -11 | -14 | i | -2 | 53 | 3 | .
O=C(CNC(=O)c1ccccc1Br)NNC(=O)c1cccs1 | . | 1 | 3 | . | . | . | -4 | 1
O=C(c1ccccc1SCc1ccccc1)N1CCCCCC1 | -3 | -5 | -5 | i | -5 | -11 | . | 15
CCCCNC(=O)N1CCOCCOCCN(C(=O)NCCCC)CCOCCOCC1 | 6 | 0 | 1 | i | 15 | -2 | -13 | .
COc1ccc(OC)c(Nc2c3c(nc4ccccc24)CCC3)c1 | 9 | 12 | -2 | i | 1 | 57 | 13 | -151
CCc1nc2ccc(C(=O)NC3CCN(C)CC3)cn2c1N(C)CCC(C)C | . | 1 | 4 | . | . | . | -18 | -15
COc1ccc(/C=C(\C#N)C(=O)OCC(=O)Nc2c(C)cccc2C(C)C)cc1 | 7 | 6 | 6 | i | -4 | 1 | -11 | -3
